Screening results from PubChem BioAssay.
STAT3 SMM: binders of human STAT3; 17,000 tested, 0.2% active; Small molecule microarray, His-STAT3 binding, anti-His fluorescence; P40763; calls only;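 active = compounds whose four printed spots each show fluorescence over background unusually high for their array block, chance value under 7%; compounds were printed on slides so no solution concentration is given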;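 also: about 2 pmol printed per array spot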
c-Myc SMM: c-Myc (human) binding; small molecule microarray, His-c-Myc binding, anti-His fluorescence; calls only; 17,000 tested, 1.5% active; AID 624141;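 active = spot fluorescence over background with P-value below 7% in all four replicate spots, showing protein binding; compounds were printed on slides so no solution concentration is given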;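 also: score is binary with 100 for all four spots passing and 0 otherwise; about 2 pmol printed per array spot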
Target sequence (P01106 whole entry, looked up): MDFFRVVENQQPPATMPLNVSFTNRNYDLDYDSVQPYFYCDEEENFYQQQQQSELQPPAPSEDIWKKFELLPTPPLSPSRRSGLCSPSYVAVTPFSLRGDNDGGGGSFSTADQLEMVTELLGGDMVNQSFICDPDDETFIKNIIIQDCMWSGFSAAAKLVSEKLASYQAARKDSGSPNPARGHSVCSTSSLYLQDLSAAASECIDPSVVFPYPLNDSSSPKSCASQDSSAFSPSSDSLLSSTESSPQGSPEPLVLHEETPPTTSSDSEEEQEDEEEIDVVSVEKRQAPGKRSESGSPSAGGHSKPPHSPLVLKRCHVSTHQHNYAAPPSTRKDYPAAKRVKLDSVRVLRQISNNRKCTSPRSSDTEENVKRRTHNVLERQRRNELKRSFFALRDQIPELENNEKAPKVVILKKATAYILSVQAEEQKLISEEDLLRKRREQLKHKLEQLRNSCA
p53 mut binder: binders of human mutant p53 | small molecule microarray binding, anti-GST fluorescence | 17,000 tested, 0.4% active | calls only;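 active = compounds whose four printed spots each glow above background more than chance allows, each with a p-value under 7%; compounds were printed on slides so no solution concentration is given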;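 also: about 2 pmol printed per array spot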
ID4 SMM: binders of human ID4 protein; small molecule microarray, Flag-ID4 binding, fluorescence F/B; P47928; calls only; 31,000 tested, 1.2% active;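 active = spot signal over background at p below 0.07 in all four prints; compounds were printed on slides so no solution concentration is given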;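 also: a binder raises fluorescence above local background on the spot; about 2 pmol printed per array spot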
Target sequence (P47928 whole entry, looked up): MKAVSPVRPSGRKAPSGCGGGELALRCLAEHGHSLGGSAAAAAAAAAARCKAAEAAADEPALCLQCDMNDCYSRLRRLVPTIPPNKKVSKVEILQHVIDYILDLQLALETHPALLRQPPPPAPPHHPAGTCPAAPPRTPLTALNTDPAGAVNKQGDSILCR
Calls only; i = inactive; nt = no result given; + = active, no number. Only part of the results is shown; the hit share may differ from the screen's.

The first three records (preview)
SMILES | STAT3 SMM | c-Myc SMM | p53 mut binder | ID4 SMM
CNC[C@@H]1Oc2ccc(NC(=O)Nc3ccc(F)cc3)cc2C(=O)N([C@H](C)CO)C[C@H]1C | i | i | i | i
CC(C)NC(=O)Nc1ccc2c(c1)C(=O)N([C@H](C)CO)C[C@H](C)[C@@H](CN(C)C(=O)CCCN(C)C)OCCCC[C@H](C)O2 | i | i | i | i
C[C@H](CO)N1C[C@H](C)[C@@H](CN(C)Cc2ccc(C(=O)O)cc2)Oc2c(NC(=O)NC3CCCCC3)cccc2C1=O | i | i | i | i

The list itself, from the first entry:
SMILES | STAT3 SMM | c-Myc SMM | p53 mut binder | ID4 SMM
CNC[C@@H]1Oc2ccc(NC(=O)Nc3ccc(F)cc3)cc2C(=O)N([C@H](C)CO)C[C@H]1C | i | i | i | i
CC(C)NC(=O)Nc1ccc2c(c1)C(=O)N([C@H](C)CO)C[C@H](C)[C@@H](CN(C)C(=O)CCCN(C)C)OCCCC[C@H](C)O2 | i | i | i | i
C[C@H](CO)N1C[C@H](C)[C@@H](CN(C)Cc2ccc(C(=O)O)cc2)Oc2c(NC(=O)NC3CCCCC3)cccc2C1=O | i | i | i | i
CC(=O)O[C@@H]1CC[C@@]2(C)C(CC[C@@H](C)[C@]23Cc2c(O)cc4c(c2O3)CNC4=O)C1(C)C (stereo partly specified) | i | i | i | i
C[C@H]1CCCCO[C@H](CN(C)C(=O)C2CCCCC2)[C@@H](C)CN([C@@H](C)CO)C(=O)c2cc(NC(=O)Nc3ccccc3)ccc2O1 | i | i | i | i
C[C@H]1CN([C@@H](C)CO)C(=O)Cc2cc(NC(=O)Cc3ccccc3)ccc2O[C@H]1CN(C)S(=O)(=O)c1cn(C)cn1 | i | i | i | i
C[C@H](CO)N1C[C@H](C)[C@@H](CN(C)S(=O)(=O)c2cn(C)cn2)Oc2ccc(NS(C)(=O)=O)cc2CC1=O | i | i | i | i
C=CCN1C(=O)[C@]2(O[C@H](CCn3cc([C@H](O)c4ccccc4)nn3)[C@@H]([Si](C)(C)c3ccc(OC)cc3)[C@@H]2C)c2cc(N3CCC3=O)ccc21 | i | i | i | i
CNC[C@H]1Oc2c(NC(=O)c3nc4ccccc4s3)cccc2C(=O)N([C@@H](C)CO)C[C@H]1C | i | i | i | i
COc1ccc(C(=O)CCC(=O)Nc2cccnc2)cc1OC | i | i | i | i
C[C@@H]1CN([C@H](C)CO)C(=O)Cc2cc(NS(C)(=O)=O)ccc2O[C@@H]1CN(C)C(=O)Nc1ccccc1 | i | i | i | i
COc1ccc(NC(=O)Nc2cccc3c2O[C@H](CN(C)CC2CCCCC2)[C@H](C)CN([C@H](C)CO)C3=O)cc1 | i | i | i | nt
CC(C)n1cnc2c(Nc3cccc(Cl)c3)nc(NCCO)nc21 | i | i | i | nt
COCCOC(=O)N1C(=O)[C@@]2(c3cc(C#CCC(C(=O)OC)C(=O)OC)ccc31)[C@H](c1ccccc1OCCO)N1[C@H](c3ccccc3)[C@H](c3ccccc3)OC(=O)[C@H]1[C@@H]2C(=O)NC[C@H](O)c1ccccc1 | i | i | i | nt
C=CCNC(=O)[C@H]1[C@@H]2C(=O)O[C@@H](c3ccccc3)[C@@H](c3ccccc3)N2[C@@H](c2ccccc2OCCO)[C@]12C(=O)N(C(=O)OCCOC)c1ccc(C#CCC(C(=O)OC)C(=O)OC)cc12 | i | i | i | i
Cc1noc(C)c1S(=O)(=O)N(C)C[C@H]1Oc2c(NC(=O)c3cnccn3)cccc2C(=O)N([C@@H](C)CO)C[C@H]1C | i | i | i | i
COC(=O)[C@@H](O)[C@H]1[C@@]2(C)C[C@]3(O)C4[C@@H](O[C@]56CC(=O)O[C@@H](c7ccoc7)[C@@]5(C)CCC([C@]46O)[C@]13C)[C@H]2O (stereo partly specified) | i | i | i | nt
COc1ccc(S(=O)(=O)Nc2ccc3c(c2)CC(=O)N([C@H](C)CO)C[C@@H](C)[C@H](CN(C)CC2CC2)O3)cc1 | i | i | i | i
C[C@@H]1CCCCO[C@H](CN(C)C(=O)C2CCCCC2)[C@@H](C)CN([C@@H](C)CO)C(=O)c2cc(NS(=O)(=O)c3ccccc3)ccc2O1 | i | i | i | i
C[C@H](CO)N1C[C@H](C)[C@H](CN(C)C)Oc2ccc(NC(=O)C3CC3)cc2CC1=O | i | i | i | i
Cc1nn(C(=O)Cn2cc([N+](=O)[O-])cn2)c(C)c1Br | i | + | i | i
Cc1ccc(OCC(=O)Oc2cccc(NC3=NS(=O)(=O)c4ccccc43)c2)cc1 | i | i | i | i
Cc1cc(OCC(=O)Nc2ncn[nH]2)ccc1Cl | i | i | i | i
C[C@@H]1CCCCO[C@H](CN(C)C(=O)CCC(F)(F)F)[C@@H](C)CN([C@H](C)CO)C(=O)c2cc(NS(=O)(=O)c3ccccc3)ccc2O1 | i | i | i | i
C[C@H](CO)N1C[C@H](C)[C@H](CN(C)Cc2ccc3c(c2)OCO3)Oc2ncc(-c3ccc(F)cc3)cc2C1=O | i | i | i | i
Cc1ccc(-n2c(SCC(=O)Nc3ccccc3F)nnc2-c2ccccc2)cc1C | i | i | i | i
O=C(CCc1nc(-c2ccccc2)no1)Nc1ccc([N+](=O)[O-])cc1 | i | i | i | i
C[C@@H]1CN([C@H](C)CO)C(=O)c2cc(N(C)C)ccc2O[C@@H](C)CCCCO[C@H]1CN(C)C(=O)c1ccncc1 | i | i | i | i
C[C@H]1CN([C@@H](C)CO)C(=O)c2cccc(NC(=O)c3nc4ccccc4s3)c2O[C@@H]1CN(C)C(=O)Nc1ccccc1 | i | i | i | i
C[C@H]1CN([C@@H](C)CO)C(=O)c2cc(NS(=O)(=O)c3cccs3)ccc2O[C@@H]1CN(C)Cc1ccc(-c2ccccc2)cc1 | i | i | i | i
C[C@@H]1CCCCO[C@H](CN(C)S(=O)(=O)c2cn(C)cn2)[C@@H](C)CN([C@@H](C)CO)C(=O)c2cc(NS(C)(=O)=O)ccc2O1 | i | i | i | i
CNC[C@@H]1OCCCC[C@H](C)Oc2ccc(NC(=O)Nc3ccccc3)cc2C(=O)N([C@H](C)CO)C[C@H]1C | i | i | i | i
C[C@H]1CCCCO[C@H](CN(C)S(=O)(=O)c2cn(C)cn2)[C@@H](C)CN([C@@H](C)CO)C(=O)c2cc(NS(C)(=O)=O)ccc2O1 | i | i | i | i
C[C@H]1CN([C@@H](C)CO)C(=O)c2cc(NC(=O)Nc3ccc4c(c3)OCO4)ccc2O[C@@H]1CN(C)Cc1ccc(C(=O)O)cc1 | i | i | i | i
C[C@@H]1CN([C@H](C)CO)C(=O)Cc2cc(NS(C)(=O)=O)ccc2O[C@H]1CN(C)Cc1ccc(-c2ccccc2)cc1 | i | i | i | i
COc1cc(NS(=O)(=O)c2ccc(NC(=O)C34CC5CC(CC(C5)C3)C4)cc2)ncn1 | i | i | i | i
Clc1ccccc1CNCC1CCC(CNCc2ccccc2Cl)CC1 (stereo unspecified) | i | i | i | i
CCS(=O)(=O)CCSc1nc(C)c(C(=O)Nc2ccccc2)c(-c2ccccc2)c1C#N | i | i | i | i
COc1ccc(OC)c(NC(=O)c2cnn(-c3ccccc3Cl)c2NC(=O)c2ccco2)c1 | i | i | i | i
COCCNC(=O)c1c(NC(=O)c2ccccc2C)sc2c1CCCC2 | i | i | i | i
C[C@@H]1CN([C@H](C)CO)C(=O)c2cccc(NC(=O)c3cnccn3)c2O[C@@H]1CN(C)C(=O)Nc1ccccc1 | i | i | i | i
COCCOC(=O)N1C(=O)[C@@]2(c3cc(C#CC4=CCCCC4)ccc31)[C@H](C(N)=O)[C@H]1C(=O)O[C@H](c3ccccc3)[C@H](c3ccccc3)N1[C@@H]2c1ccc(O)cc1 | i | i | i | i
C[C@@H]1CN([C@H](C)CO)C(=O)Cc2cc(NC(=O)Cc3ccccc3)ccc2O[C@H]1CN(C)C(=O)Nc1ccc2c(c1)OCO2 | i | i | i | i
C[C@@H]1CCCCO[C@H](CN(C)C(=O)CCCN(C)C)[C@H](C)CN([C@H](C)CO)C(=O)c2cc(N(C)C)ccc2O1 | i | i | i | i
O=C(/C=C/c1ccc(O)cc1)NCC(O)c1ccc(O)cc1 (stereo unspecified) | i | i | i | i
CC1(C)CC(=O)C2=C(C1)N(Cc1cccnc1)C(=O)C2(NC(=O)C1CC1)C(F)(F)F (stereo unspecified) | i | i | i | i
C[C@@H]1CN([C@H](C)CO)C(=O)c2cccc(NS(=O)(=O)c3cccs3)c2O[C@H]1CN(C)C(=O)Nc1cccc2ccccc12 | i | i | i | i
CCOC(=O)C1C2C=CC3(O2)C1C(=O)N(Cc1ccccc1)C3C(=O)NCc1ccccc1 (stereo unspecified) | i | i | i | i
Clc1ccc(-c2nc3sccn3c2/C=N/OCc2ccc(Cl)c(Cl)c2)cc1 | i | i | i | i
COc1ccc(NC(=O)N(C)C[C@H]2Oc3c(NC(=O)c4ccc(-c5nccs5)cc4)cccc3C(=O)N([C@@H](C)CO)C[C@@H]2C)cc1 | i | i | i | nt
Remaining list, next part:
SMILES | STAT3 SMM | c-Myc SMM | p53 mut binder | ID4 SMM
C[C@H]1CN([C@@H](C)CO)C(=O)c2cccc(NC(=O)c3ccncc3)c2O[C@@H]1CN(C)Cc1ccc(Oc2ccccc2)cc1 | i | i | i | i
O=C(Cn1nnc(-c2ccccc2F)n1)NCc1ccco1 | i | i | i | i
C[C@@H]1CN([C@H](C)CO)C(=O)c2cc(NC(=O)Nc3ccc4c(c3)OCO4)ccc2O[C@H]1CN(C)S(=O)(=O)c1cccs1 | i | i | i | i
C[C@@H]1CN([C@@H](C)CO)C(=O)c2cccc(NC(=O)Nc3ccc(F)cc3)c2O[C@@H]1CN(C)Cc1ccccc1 | i | i | i | nt
CC(C)NC(=O)N(C)C[C@@H]1Oc2ccc(NS(=O)(=O)c3cn(C)cn3)cc2CC(=O)N([C@@H](C)CO)C[C@H]1C | i | i | i | i
COC(=O)CNC(=O)c1cc(-c2ccncc2)nc2ccc(C)cc12 | i | i | i | i
Cc1cc(C)nc(NS(=O)(=O)c2ccc(NC(=O)c3cccs3)cc2)n1 | i | i | i | i
COc1ccc([Si](C)(C)[C@@H]2[C@@H](CCO)O[C@]3(C(=O)N(c4ccccc4)c4ccccc43)[C@H]2C)cc1 | i | i | i | i
Cc1nc(SCCCSc2n[nH]c(C)n2)n[nH]1 | i | i | i | i
O=C(CCNc1ccc(Oc2ccccc2)cc1)c1ccco1 | i | i | i | i

Full records, looked up by structure. Order of values: STAT3 SMM, c-Myc SMM, p53 mut binder, ID4 SMM
Shown for `O=C(CCNc1ccc(Oc2ccccc2)cc1)c1ccco1` → i, i, i, i
Shown for `O=C(Cn1nnc(-c2ccccc2F)n1)NCc1ccco1` → i, i, i, i
Shown for `Cc1cc(C)nc(NS(=O)(=O)c2ccc(NC(=O)c3cccs3)cc2)n1` → i, i, i, i
Shown for `COc1ccc([Si](C)(C)[C@@H]2[C@@H](CCO)O[C@]3(C(=O)N(c4ccccc4)c4ccccc43)[C@H]2C)cc1` → i, i, i, i
Shown for `C[C@H]1CN([C@@H](C)CO)C(=O)c2cccc(NC(=O)c3ccncc3)c2O[C@@H]1CN(C)Cc1ccc(Oc2ccccc2)cc1` → i, i, i, i

(list continues)
SMILES | STAT3 SMM | c-Myc SMM | p53 mut binder | ID4 SMM
CCN1CCN(C(=O)CSc2nc(-c3ccc(OC)c(OC)c3)cc(C(F)(F)F)n2)CC1 | i | i | i | i
COc1ccc(S(=O)(=O)Nc2ccc3c(c2)CC(=O)N([C@H](C)CO)C[C@@H](C)[C@@H](CN(C)C(=O)NC(C)C)O3)cc1 | i | i | i | nt
CNC[C@H]1OCCCC[C@@H](C)Oc2ccc(N(C)C)cc2C(=O)N([C@H](C)CO)C[C@@H]1C | i | i | i | i
C[C@H]1CN([C@@H](C)CO)C(=O)c2cc(NC(=O)C3CC3)ccc2O[C@H]1CN(C)Cc1ccc(Cl)c(Cl)c1 | i | i | i | i
C=C1[C@]2(C)C[C@@H]3C(=C)[C@@]4(C=CC(=O)OC4(C)C)CC[C@@]3(C)[C@]13C(=O)O[C@H](C)[C@]3(O)C2=O | i | i | i | i
CNC(=O)CN(c1cc(C)ccc1OC)S(C)(=O)=O | i | i | i | i
COc1cc(/C=C/C(=O)O[C@@H]2O[C@H](CO[C@@H]3O[C@H](CO)[C@@H](O)[C@H](O)[C@H]3O)[C@@H](O)[C@H](O)[C@H]2OC(=O)/C=C/c2cc(OC)c(O)c(OC)c2)cc(OC)c1O | i | i | i | nt
C[C@@H]1CN([C@@H](C)CO)C(=O)c2cc(NC(=O)c3ccncc3)ccc2O[C@H]1CN(C)C(=O)Nc1ccc(F)cc1 | i | i | i | i
CCCCCC[C@H](O)/C=C/CC1C(=O)CC[C@H](O)C1=O (stereo partly specified) | i | i | i | nt
C[C@@H]1CCCCO[C@@H](CN(C)C(=O)c2ccccc2)[C@H](C)CN([C@@H](C)CO)C(=O)c2cc(NS(C)(=O)=O)ccc2O1 | i | i | i | i
C[C@@H]1CCCCO[C@@H](CN(C)Cc2ccc(C(=O)O)cc2)[C@@H](C)CN([C@@H](C)CO)C(=O)c2cc(NS(=O)(=O)c3cccs3)ccc2O1 | i | i | i | nt
C[C@@H]1CN([C@@H](C)CO)C(=O)c2cccc(NS(=O)(=O)c3cn(C)cn3)c2O[C@@H]1CN(C)C(=O)NC1CCCCC1 | i | i | i | i
C[C@@H]1CN([C@@H](C)CO)C(=O)Cc2cc(NC(=O)C3CC3)ccc2O[C@@H]1CN(C)C | i | i | i | i
C[C@H]1CN([C@@H](C)CO)C(=O)Cc2cc(NS(C)(=O)=O)ccc2O[C@@H]1CN(C)S(=O)(=O)c1cn(C)cn1 | i | i | i | i
